Screens as filed in PubChem BioAssay.
NPYLR7 ag: activates Aedes aegypti NPYLR7 receptor; activation, % at 10 µM; HEK293T NPYLR7/Galpha15, GCaMP6s calcium fluorescence; actives 0.15% (n = 270,000); in the data active means activation above about 40%;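 further: 0% = vehicle and 100% = reference agonist at the receptor; some compounds past the cut are filed as inactive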
NPYLR7 ag max-min: second read-out of NPYLR7 ag, no call of its own (marks repeat the call); activation, %; measured here: Max-Min RFU normalised activation; some inactives read as strong as hits;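 span of the calcium signal over five minutes; 0% = vehicle and 100% = native peptide agonist; compound fluorescence can raise it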
Numbers without * were called inactive; & = joins results of further samples. Some of the compounds tested; rates above refer to the full screens.

SMILES	NPYLR7 ag	NPYLR7 ag max-min
CCc1ccc(NC(=O)c2cccn(Cc3ccccc3C)c2=O)cc1	18.9	5.7
CCc1cnc(C)nc1NCc1cnc(C)cc1C	2.1	0.3
O=C(O)C(c1c(O)c2ccccc2oc1=O)c1c(O)c2ccccc2oc1=O	13.1	10.8
CCc1cc(CN2C[C@H](c3cccc(F)c3F)[C@@H]3[C@H]2C2CCN3CC2)[nH]n1	6.3	1.7
N#CCCC(C#N)CN1CCC2(CCOC2)C1 (configuration not stated)	18.8	17.0
COc1cccc(CC(=O)N2CCN(C(c3ccccc3)c3ccc(Br)cc3)CC2)c1 (configuration not stated)	19.7	22.9
COc1ccc(S(=O)(=O)NC[C@H]2C[C@@H]3CCN2C[C@@H]3CN2CCOCC2)cc1	-8.9	-15.9
Nc1n[nH]c(Cc2nc(N)n[nH]2)n1	-12.7	-23.0
CC12CN3CC(C)(CN(C1)C31CCOCC1)C2=O	7.8	4.1
O=c1[nH]c(=S)[nH]c(O)c1C1CCS(=O)(=O)C1 (configuration not stated)	4.8	8.6
Cc1nc2ccc(Cl)cn2c1P(=S)(N1CCOCC1)N1CCOCC1	2.7	1.9
COc1ccc(Cl)cc1S(=O)(=O)N1CCN(CCOC(c2ccccc2)c2ccc(F)c(F)c2)CC1 (configuration not stated)	4.9	2.5
CO[C@H]1C[C@@H]2C[C@H](c3ccccn3)OC[C@]2(O)[C@@H]1N1CC=CCC1	-2.0	5.5
CC12CCCCC1N(O)CN2O (configuration not stated)	-2.9	-8.1
Cc1ccc(S(=O)(=O)N(CCS(=O)(=O)F)CCS(=O)(=O)F)c(C)c1	-2.9	-5.7
COC(=O)c1ccccc1NC(=O)c1cccn(Cc2cccc(C(F)(F)F)c2)c1=O	20.3	10.8
CC(C)(C)N1NC1C1NN1C(C)(C)C (configuration not stated)	0.0	48.5
Cc1ccc(C)c(Cn2cccc(C(=O)Nc3ccccc3C)c2=O)c1	12.7	8.9
Cc1ccccc1C1SCC(=O)N(CC(=O)O)c2c1c(C(C)(C)C)nn2-c1cccc(C)c1C (configuration not stated)	0.6	-2.7
CC(Nc1ccc([N+](=O)[O-])c2cnccc12)C12CC3CC(CC(C3)C1)C2 (configuration not stated)	18.4	11.8
c1ccc2c(c1)[I+]c1ccccc1-2	-11.5&-1.7	-18.4&-29.0
O=C(NC1CCC1)c1nn(Cc2ccc(OC(F)F)cc2)c2ccccc12	18.5	21.8
CCCn1c(N)c(C(=O)C(C)NCCO)c(=O)n(C)c1=O (configuration not stated)	17.8	17.4
C#CCN(C)[C@H](C)Cc1ccccc1	-10.9&3.9&-6.1	-16.0&3.0&-11.2
CC(C)C(NC(=O)c1ccccc1F)C(=O)N1CCC2(CC1)OCCO2 (configuration not stated)	-1.4	-4.8
COc1ccc(Cl)cc1C(=O)C1CCCN(Cc2cccnc2)C1 (configuration not stated)	5.9	5.2
N#Cc1ccc(NC(=O)CN2CCCCCCC2)cc1Cl	-1.5	-2.7
CN=C1CN(O)C(c2ccccc2)=c2cc(Cl)ccc2=N1	-3.5	-5.4
C=CCn1cc(CNCCc2ccc(F)cc2)c(C)n1	-0.9	-0.9
Cc1ccsc1C(=O)C1CCCN(Cc2ccn[nH]2)C1 (configuration not stated)	0.9	0.3
O=c1cccc2n1CC1CC2CN(CC(O)CN2CC3CC(C2)c2cccc(=O)n2C3)C1 (configuration not stated)	4.5	3.0
CNc1ncccc1C(=O)N1CCC2(CCN(C)C2)CC1	18.8	8.0
Clc1cccc(C2CC(c3cccnc3)=Nc3nnnn32)c1 (configuration not stated)	25.2	13.5
NC(Cc1c(F)cccc1Cl)c1ccccc1Br (configuration not stated)	3.5	3.0
O=C(Nc1cccc(Cl)c1)C(C1CCCC1)N1CCN(C(=O)Cc2ccccc2)CC1 (configuration not stated)	-5.0	-2.9
Cc1ccc(C)c(Cn2cccc(C(=O)Nc3ccc(F)c(F)c3F)c2=O)c1	27.3	20.9
Cc1ccc(CN2CCCC(C(=O)c3cccc(Cl)c3)C2)o1 (configuration not stated)	-1.3	-3.9
C=CCc1ccc(OC)cc1	-7.8	-11.2
Cc1cccc(-c2ncc(CN3C[C@H]4CC[C@H]3C4)cn2)c1	3.3	3.8
CC(C)(C)c1nn(-c2cccc(Cl)c2)c2c1C(c1cccc(F)c1)SCC(=O)N2CC(=O)NCc1ccccn1 (configuration not stated)	15.8	5.5
CCOC(=O)[C@@H]1[C@@H](c2ccccc2)CN2CCN(C(=O)Nc3ccccc3)C[C@H]12	6.9	12.6
CCCN(CCC)[C@@H]1CCc2c(OC)cccc2[C@@H]1C	3.1	-7.0
Cn1cccc1C(=O)NP(=O)(N1CCCCCC1)N1CCCCCC1	2.8&2.3	1.4&0.5
Cc1nc(-c2cccs2)cc([C@H]2CN3CC[C@H]2C[C@@H]3CNC(=O)C2CC2)n1	-7.2	-15.3
O=[N+]([O-])c1cc(C(F)(F)F)cc2c1no[n+]2[O-]	10.4	8.9
CCOP(=S)(OCC)SCOC(=O)NCC(=O)OC	4.5	2.4
Cc1nn(CCNC(C)Cn2ccnc2)c(C)c1Cl (configuration not stated)	29.8	18.5
CCCCP(=S)(C(C)C)C(C)C	-8.8	-13.7
O=C1NC(=S)NC(=O)C1=Cc1cccc2ccccc12	6.0	3.9
O=C(CCC(F)(F)F)N1CCCC2(CCNC2)C1 (configuration not stated)	6.6	1.5
COc1ccccc1-n1c(C(C)NCCc2ccccc2)nc2ccccc2c1=O (configuration not stated)	3.7	5.4
O=c1cccc2n1CC1CNC[C@H]2C1	-3.4	-7.9
O=S(=O)(c1ccc(O)cc1)c1ccc(O)cc1	-6.1	-8.1
CC(C)Cn1cc(C(=O)NCC2CCCN2C)c2ccccc21 (configuration not stated)	-1.7	0.1
O=C1CCCN1CC(=O)N1CC[C@H]2CC[C@@H](C1)N2	1.0	0.0
Cc1ccccc1OCC(=O)N1CCN(Cc2cccc(-c3noc(-c4ccccc4)n3)c2)CC1	5.6	7.5
CCCCCCNC(C)c1nc2ccccc2c(=O)n1-c1ccccc1OCC (configuration not stated)	-1.3	-1.5
COc1ccc(OC)c2sc(N3CCNCC3)nc12	-4.0	-5.6
Cc1ccnc(CC(C)N(C)Cc2cccc3nsnc23)c1 (configuration not stated)	-1.0	-2.1
Cc1cccc(CN(C)C)c1OC(=O)N(C)C	16.8	6.6
(next part)
SMILES	NPYLR7 ag	NPYLR7 ag max-min
Oc1ccccc1N1CCN(Cc2c(F)cccc2Cl)CC1	2.4	1.5
N#CCCn1cc(C(=O)NCc2ccccc2)c(-c2ccc3c(c2)OCCO3)n1	0.1	-1.6
O=C(Cc1ccc(Cl)c(Cl)c1)N1CCCCC1CN1CCCC1 (configuration not stated)	1.2	5.6
CN(C)c1ccc(C2CC2N)cc1 (configuration not stated)	-6.3	-8.3
COc1cccc([C@@H]2CCN(CCC(C)(C)C)C[C@H]2O)c1	1.0	-0.9
O=C(NC(=O)c1ccccc1Cl)Nc1ccc(OC(F)(F)F)cc1	5.6	-2.6
CN1CCc2cc(O)cc3c2[C@H]1Cc1ccc(O)c(O)c1-3	0.5	-25.3
O=C(c1ccn2nnnc2c1)N1CCC2(CCCNC2)C1 (configuration not stated)	-1.3	-1.3
CCC1N=C(c2ccccc2)c2cc(Br)ccc2NC1=O (configuration not stated)	-1.8	3.9
Cc1nc(C2CCCN(c3ccc(C#N)c(C(F)(F)F)c3)C2)no1 (configuration not stated)	-6.3	-5.0
O=C(Cc1ccsc1)N1CCCC(N2CCN(Cc3ccc4c(c3)OCO4)CC2)C1 (configuration not stated)	10.7&5.6	2.4&6.4
CN1CCN2CCN(Cc3ncc[nH]3)CC2C1=O (configuration not stated)	15.4	12.2
CN1CCN2CCN(c3cc(C(F)(F)F)ccn3)CC2C1=O (configuration not stated)	6.7	5.0
Cc1ccc(P2(=S)c3c(C)nn(-c4ccccc4)c3N=C(c3ccccc3)N2C)o1 (configuration not stated)	-1.7	-6.1
NCCCP(=O)(O)O	2.9	-0.5
O=C(O)c1cc[c]([Hg][Cl])cc1	7.2	-8.4
O=C(c1cccnc1)N1C[C@@H](c2cccc(F)c2F)[C@@H]2[C@H]1C1CCN2CC1	13.9	11.4
CN1CC(CNC(=O)OCc2ccccc2)CC2c3cccc4c3c(cn4C)CC21 (configuration not stated)	19.1	3.5
COC(=O)C(c1ccccc1)C1CCCCN1 (configuration not stated)	-1.4	-7.8
Cc1nc(C)n(CCCNC(C)Cc2ccccc2F)n1 (configuration not stated)	18.6	9.2
CC(=O)OCc1ccc(CN2CCN(CCOC(c3ccccc3)c3ccc(F)c(F)c3)CC2)o1 (configuration not stated)	25.2	26.9
COc1ccc(C[C@H]2NC[C@H](O)[C@H]2OC(C)=O)cc1	-5.9	-9.9
N#Cc1ccccc1S(=O)(=O)N1CCN(CCOC(c2ccccc2)c2ccc(F)c(F)c2)CC1 (configuration not stated)	-11.4	-8.0
CCOC(=O)CN(C)c1ncc(CN2[C@@H]3CC[C@H]2CC(O)C3)cn1 (some centres not stated)	3.0	2.3
COC(=O)c1cc(N2C[C@@H](c3ccc(OC)cc3)[C@@H]3[C@H]2C2CCN3CC2)ncn1	5.3	4.5
CC1(C(=O)O)C2CCC(O2)C1(C)C(=O)O (configuration not stated)	0.8	0.8
CCCCN(C)C(=O)c1nn(Cc2ccc(OCc3ccccc3)cc2)c2ccccc12	10.9	16.1
Cc1ccc(CC2(CCc3ccncc3)C(=O)NC(=O)NC2=O)s1	-5.2	-10.0
NC(=O)OC1CCCC1	-6.9	-7.4
CN1CCC2(CC1)CC1CC3C=CC1(CN2)O3 (configuration not stated)	2.8	11.2
COc1cncc(-c2cccc3c2CCNC3)c1	4.7	3.4
O=C(Nc1ccccc1C(F)(F)F)c1cccn(Cc2ccccc2F)c1=O	15.2	5.3
c1cc2c(c(-c3nccc4[nH]ccc34)c1)CCNC2	6.1	4.5
Oc1cccc(C=NNP(=S)(c2ccccc2)c2ccccc2)c1	2.5	1.1
C1=C(c2ccccc2)CCN(Cn2nnc(-c3ccccc3)n2)C1	8.9	13.7
CCN(CC)P(=S)(c1c(C)nc2ccccn12)c1c(C)nc2ccccn12	3.1	2.0
c1cc(-c2cccc3c2CCNC3)cc(-n2cnnc2)c1	33.9	15.5
CCCc1cnc(C)nc1N1C[C@H]2CC[C@@H](C1)N2	-2.9	-4.8
CC(NC(C)(C)C)C(=O)c1cccc(Cl)c1 (configuration not stated)	-10.5&51.4&-8.2&-10.1&-4.0&4.4	-15.4&37.8&-11.4&-15.3&-6.2&4.0
COC(=O)[C@H]1ON2CCc3ccccc3C2[C@H]1C(=O)O (some centres not stated)	-1.3	-3.8
COCCN(CC(=O)Nc1nc(CC(=O)N(CCN(C)C)Cc2ccccc2)cs1)C(=O)C1CCCCC1	17.7	25.4
CC(C)CC(=O)NC1CCSC1=O (configuration not stated)	0.8	6.8
CC(=O)O[C@H]1CC[C@@]2(C)C(=CC[C@@H]3[C@@H]2CC[C@]2(C)C(=O)CC[C@@H]32)C1	7.6	4.4
CNC(=O)C(C1CCCC1)N1CCN(C(=O)COc2ccc(Cl)cc2)CC1 (configuration not stated)	-6.3	-8.3
CC1CC(=O)CCN1Cc1ccccc1 (configuration not stated)	20.2	19.4
COC(=O)COc1ccc(Cl)cc1Cl	-10.6	-11.7
CC(C)Oc1cccnc1N(C)C1CCN(Cc2ccccc2)CC1	1.4	26.5
O=C(c1cn2c(n1)CNCC2)N1C[C@@H](c2ccccc2)[C@@H]2[C@H]1C1CCN2CC1	8.5	1.5
CN1CCc2nc3sc(-c4ccncc4)c(N)c3cc2C1	-2.4	-11.7
Cc1ccc(C(c2ccccc2)N2CCN(C(=O)COc3ccc(Cl)cc3)CC2)cc1 (configuration not stated)	11.0	-0.7
CCOC(=O)C1=C(NC(=O)CC)c2ccccc2CC12CCCCC2	4.9	5.4
Cc1n[nH]c(C)c1NC(=O)CN(C)C(C)Cc1cccs1 (configuration not stated)	-0.4	-0.1
Oc1cc(O)cc(CN2CCN(CCOC(c3ccccc3)c3ccccc3)CC2)c1	0.0	9.6
CNC(=O)CS(=O)(=O)C(c1ccccc1)c1ccccc1C (configuration not stated)	12.2&7.2	10.0&4.7
CC1=C(C(=O)OC(C)(C)C)C2(C(=O)Nc3ccc(Br)cc32)C(C(=O)OC(C)(C)C)C(=N)O1 (configuration not stated)	9.4	5.3
O=C(c1cccnc1)C1CCCN(Cc2nc(-c3ccccn3)no2)C1 (configuration not stated)	-0.9	-6.2
CCNC(=O)[C@H]1O[C@@H](n2cnc3c(N)ncnc32)C(O)[C@H]1O (some centres not stated)	190.6*	207.7*
CC(Cc1cccnc1)NCc1nc(Cc2ccccc2F)no1 (configuration not stated)	6.5	5.2
ClCCNc1nc2ccccc2[nH]1	-2.2	-4.8
Cc1cc(N2CCC3(CC2)CC(C(=O)O)N(C)C3)nc(N)n1 (configuration not stated)	3.0	3.2
CN(c1ccccc1)S(=O)(=O)c1ccc(Cn2nc(C(=O)Nc3ccc(C(N)=O)cc3)c3ccccc32)cc1	9.5	10.2
